From PubChem BioAssay
PINK1 modulator: A Quantitative High throughput Screen to Identify Chemical Modulators of PINK1 Expression | Potency, µM (doses to about 76.6 µM), for the others: at the top dose activation (PINK1 increase), hits mostly activators | 410,000 tested, 0.2% active | PINK1 immunofluorescence, high-content cytometry, 24 h; active = well fitted activation curve with a large enough effect; inconclusive = small, poorly fitted or top-dose-only effect; inactive = flat fitted curve, though single readings scatter; cell line not stated here;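 further: % of control where 0% means no effect; nearly all actives have a fitted effect of over 65% in size; a mitochondrial uncoupler was the plate control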
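Stable cell line treated 24 h with compounds at 5 concentrations (CCCP controls), then fixed and immunostained for PINK1 plus nuclear and cell stains; PINK1 immunofluorescence quantified by laser-scanning microplate cytometry.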
Numbers without * were called inactive; u = inconclusive. Potency means the concentration at half of the fitted maximal effect. This is a subset; the hit share may differ from the screen's.

SMILES	PINK1 modulator
CCC1CCCCN1C(=O)Cn1c(=O)n(-c2ccccc2C(F)(F)F)c(=O)c2c(C)c(C(=O)N(C)C)sc21 (stereo unspecified)	-0.6%
O=S(=O)(Nc1ccc(-c2ccc(N3CCCC3)nn2)cc1)c1ccc(C(F)(F)F)cc1	1.0%
CCOc1ccccc1NC(=O)Cn1c(=O)n(Cc2ccc(C(=O)NCCCOC)cc2)c(=O)c2ccccc21	0.2%
CCOc1ccccc1NC(=O)CSc1nc2cc(OC)c(OC)cc2c2nc(CCn3c(C)nc4ccccc43)nn12	16%
O=C1CN(C(=O)C2CCCCC2)C(c2ccccc2)c2cc(F)ccc2N1 (stereo unspecified)	-0.3%
COc1cc(N(C)C)ccc1/C=C1\C=Cc2ccccc21	4.5%
O=C(Nc1ccc(F)cc1)N1CCN(c2ccccc2F)CC1	2.7%
CCOC(=O)N1CCC(NC(=O)c2ccc3c(c2)N(Cc2cc(C)ccc2C)C(=O)c2ccccc2S3=O)CC1 (stereo unspecified)	3.1%
COc1cc2nc(Cl)nc(NC(C)C)c2cc1OC	0.5%
COc1ccc(N(C(=O)c2cc(OC)c(OC)c(OC)c2)S(=O)(=O)c2ccc(C)cc2)cc1	3.1%
COc1ccc(C2=C(N3CCN(c4cccc(C)c4C)CC3)c3ccccc3C2=O)cc1	1.5%
COc1ccc(C)c2sc(N3CCN(C(=O)c4cccc(F)c4)CC3)nc12	-0.9%
Cc1cc(C)c(NC(=O)c2cc(S(=O)(=O)N3CCC4(CC3)OCCO4)ccc2F)c(C)c1	0.7%
O=C(CSc1nc2c([nH]c3ccccc32)c(=O)n1-c1ccccc1F)Nc1cccc(C(F)(F)F)c1	-0.8%
O=C(NCc1nnc2n1CCN(Cc1ccnc3ccccc13)CC2)c1cccc(F)c1	0.4%
CCC(=O)N1CCc2cc(CNC(=O)Cc3ccc(OC)c(OC)c3)ccc21	-0.2%
O=c1c(NCc2cccs2)nccn1-c1ccccc1	-1.1%
CCOc1ccc(NC(=O)CN2C(=O)COc3ccc(S(=O)(=O)Nc4ccccc4)cc32)cc1	2.1%
COc1ccc(CNC(=O)CCS(=O)(=O)c2cc(Br)cc3c2N(C(C)=O)C(C)C3)cc1 (stereo unspecified)	-0.6%
CCOc1cc(C2C(C(=O)OC)=C(C)NC3=C2C(=O)c2ccccc23)ccc1OC (stereo unspecified)	0.9%
O=C(CC1C(=O)N(c2ccccc2)C(=O)N1CCC1=CCCCC1)Nc1ccc(F)cc1 (stereo unspecified)	1.4%
O=C(Nc1ccc(OCc2cc(=O)n3c4c(sc3n2)CCCC4)cc1)c1ccccc1	1.1%
COc1ccc(-c2noc(-c3ccc(NCC4CCCO4)c([N+](=O)[O-])c3)n2)cc1OC (stereo unspecified)	-1.0%
Cn1cc(-c2cc3n(n2)CCC(=O)N3CCCC(=O)Nc2ccccc2Cl)c2ccccc21	3.9%
Cc1cc(Nc2ccc(C(=O)O)c(O)c2)n2ncnc2n1	0.5%
COc1ccc(N2CCN(C(CNS(=O)(=O)c3c(C)cc(C)cc3C)c3ccco3)CC2)cc1 (stereo unspecified)	-1.2%
O=C(O)CSc1c2c(nc3cc(C(=O)Nc4ccc(F)c(Cl)c4)ccc13)CCC2	0.5%
Cc1cc(C)cc(NC(=O)CSc2nccn2-c2ccccc2)c1	-1.5%
Cc1ccc(CSC2=Nc3ccccc3C3=NC(CCC(=O)NCc4cccs4)C(=O)N23)cc1 (stereo unspecified)	0.6%
CCN(c1ccccc1)S(=O)(=O)c1ccc(NC(=O)c2cc(=O)c3ccc(C)c(C)c3o2)cc1	0.0%
Cc1ccc(NC(=O)c2cc3nc(-c4ccc5c(c4)OCO5)cc(C(F)(F)F)n3n2)cc1Cl	4.0%
COc1ccc(Cn2c(=O)n(Cc3ccco3)c(=O)c3oc4ccccc4c32)cc1	1.1%
COc1ccc(CCNC(=O)CSc2cn(CCNC(=O)c3c(F)cccc3F)c3ccccc23)cc1OC	1.0%
O=C1C(=O)N(C2CCN(C(=O)c3cccc(Cl)c3)CC2)CCN1Cc1ccc(F)cc1	0.8%
CCc1ccccc1Nc1nn2c(=O)c3ccc(C(=O)NCCC4=CCCCC4)cc3nc2s1	-2.6%
Cc1cc(C)c2c(=O)cc(C(=O)Nc3ccccc3C(F)(F)F)oc2c1	2.8%
COc1ccc(OC)c(NC(=O)Cn2ccc3ccccc3c2=O)c1	2.0%
Cc1cc(NC(=O)c2cccs2)cc(-c2nc3cc(Cl)ccc3o2)c1O	0.3%
Cc1nc(C)c(-c2ccc(SCC(=O)Nc3ccc(C)c(F)c3)nn2)s1	5.8%
Cc1nn(C(=O)c2c(F)cccc2F)c(C)c1S(=O)(=O)N1CCOCC1	0.4%
CCOc1ccccc1NS(=O)(=O)c1ccc2c(c1)oc(=O)n2C	1.1%
CCOC(=O)c1[nH]c(C)c(CCC(=O)NCc2ccccc2C)c1C	0.7%
Cc1ccccc1NC(=O)CSc1nc2nccnc2c(=O)n1CCc1c[nH]c2ccccc12	0.2%
COc1ccc(S(=O)(=O)N(CC(=O)NCc2ccccc2OC)c2ccc(C)cc2)cc1	-0.1%
CCOc1ccccc1CNCc1c(C(=O)O)c(C)n(Cc2ccc(Cl)cc2)c1C	-0.2%
Cc1c(C(=O)N2CCCCCC2)c(S(=O)(=O)NCc2ccccc2)c(C)n1C	-1.0%
CCOC(=O)c1ccc(NC(=O)CC2C(=O)N(c3cccc(OC)c3)C(=O)N2Cc2ccc(OC)cc2)cc1 (stereo unspecified)	2.1%
Cc1cc(C)cc(NS(=O)(=O)c2ccc3[nH]cc(C(=O)NC4CCCCC4)c(=O)c3c2)c1	16%
Nc1c(C(=O)NCCc2ccccc2)nnn1CC(=O)Nc1ccc(Cl)cc1	u
Cc1ccc2c(Sc3ccc(Cl)cc3)c(C(=O)NCCC(C)C)[nH]c2c1	0.8%
COCCCNC(=O)CCCn1c(SCC(=O)c2ccc(Br)cc2)nc2c(sc3ccccc32)c1=O	-1.6%
COc1cccc(-c2ccc3c(N)c(C(=O)NCc4ccc(Cl)cc4)sc3n2)c1	1.9%
CCc1ccc(CNC(=O)c2cccc(-n3c(C)nc4cccnc43)c2)cc1	-0.3%
CCCc1ccc(C2Sc3ccccc3NC3=C2C(=O)c2ccccc23)cc1 (stereo unspecified)	10%
CC(=O)NCCc1nc2ccccc2n1CCCCOc1ccc(Cl)cc1	7.0%
COc1ccc(OC)c(C2c3c(-c4ccc(Br)cc4)n[nH]c3C(=O)N2c2ccc(Cl)cc2)c1 (stereo unspecified)	u
O=C(COc1ccccc1)Nc1ccccc1OCc1cc(=O)n2ccccc2n1	-10%
COc1ccc(/C=C/c2nc(-c3ccccc3O)n(-c3ccccc3)n2)cc1OC	1.4%
COc1ccc(C(=O)n2nc(-c3cccnc3)nc2NCc2ccccc2)cc1OC	-2.0%
Fc1cccc(-c2nc(-c3ccncc3)no2)c1	-0.3%

3 of the compounds above, with values ahead of the structure:
PINK1 modulator	canonical_smiles
10%	CCCc1ccc(C2Sc3ccccc3NC3=C2C(=O)c2ccccc23)cc1 (stereo unspecified)
-1.0%	Cc1c(C(=O)N2CCCCCC2)c(S(=O)(=O)NCc2ccccc2)c(C)n1C
-0.3%	Fc1cccc(-c2nc(-c3ccncc3)no2)c1

Further results follow:
SMILES	PINK1 modulator
O=C(Nc1ccc2nc(SCC(=O)N3CCCc4ccccc43)sc2c1)c1cccc(Cl)c1	0.4%
Cc1ccc(CCNC(=O)CN2N=C(c3ccc(C)cc3)CCC2=O)cc1	0.1%
O=c1oc2c(CN3CCOCC3)c(O)ccc2cc1-c1ccccc1	-1.8%
O=C(COc1ccccc1)OCc1cc(=O)n2nc(C3CC3)sc2n1	-0.5%
CCc1ccccc1NC(=O)C1CCCN(c2ncnc3onc(C)c23)C1 (stereo unspecified)	0.1%
CC(=O)Nc1cccc(NC(=O)Cc2csc(COc3cccc(C)c3)n2)c1	2.2%
COC(=O)c1sc(N2C(=O)c3oc4cc(C)c(C)cc4c(=O)c3C2c2ccccc2F)nc1C (stereo unspecified)	-0.1%
O=c1ccc2cc(S(=O)(=O)NCc3ccc(Cl)cc3)ccc2[nH]1	3.2%
O=C(Nc1ccc(Cl)cc1)C(NS(=O)(=O)c1cccs1)c1ccccc1 (stereo unspecified)	4.6%
CCN1CCN(C(c2ccc(C)cc2)c2c(O)cc(C)n(Cc3ccco3)c2=O)CC1 (stereo unspecified)	2.2%
Cc1nc2sccn2c1CN1CCOc2ccc(CN3CCN(c4ccc(F)cc4)CC3)cc2C1	0.3%
CCOc1ccccc1CNC(=O)c1ccc(Cn2c(=O)c3cccn3c3cccnc32)cc1	-1.3%
COc1ccc(CCNC(=O)CSc2nc3ccccc3nc2Cc2ccc(C)cc2)cc1OC	0.0%
COC(=O)c1cc(CNC(=O)c2ccccn2)cc(NC(=O)c2ccccc2OC)c1	0.5%
CC(C)NC(=O)CSc1nc2ccccc2c(=O)n1Cc1ccc(C(=O)NC(C)C)cc1	-4.7%
COc1ccccc1Cn1cc(C(=O)c2ccc(C)cc2)c(=O)c2cc3c(cc21)OCCO3	-1.0%
CCOc1ccc(Nc2c(S(=O)(=O)c3ccccc3)cnc3ccc(CC)cc23)cc1	11%
COc1ccc(C2CC(=O)Nc3c2c(C)nn3-c2nncc(-c3ccccc3)n2)c(OC)c1OC (stereo unspecified)	0.2%
Cc1ccc2nc(NC(=O)c3nc(SCc4ccccc4F)ncc3Cl)sc2c1	2.3%
CN(C)CCNC(=O)c1ccc2c(c1)N(Cc1ccccc1)C(=O)c1ccccc1S2(=O)=O	1.0%
CCN1C(C(=O)c2ccccc2)=C(OC(=O)C(C)C)c2ccccc2S1(=O)=O	8.0%
O=C(Nc1nc2n(n1)C(c1ccc(F)cc1)C=C(c1ccc(Cl)cc1)N2)c1ccc([N+](=O)[O-])cc1 (stereo unspecified)	0.2%
O=C(NCc1ccc2c(c1)CCN2C(=O)c1ccc(Cl)cc1)c1ccco1	0.9%
CCOc1cccc2sc(NC(=O)c3ccc(S(=O)(=O)N4CCc5ccccc54)cc3)nc12	0.9%
CCOC(=O)c1ccc(NC(=O)C2CCN(S(=O)(=O)c3ccc(C)cc3)CC2)cc1	0.8%
O=C(CCc1ccccc1)NC1CC(=O)N(c2cccc(F)c2)C1 (stereo unspecified)	1.0%
COc1cc(OC)c(NC(=O)Cn2c(SCc3ccccc3F)nc3cccnc32)cc1Cl	1.3%
Cc1cc2ccc(Cl)nc2nc1C	0.0%
CCCCOC(=O)c1ccc(NC(=O)Cc2coc3ccc(C(C)C)cc23)cc1	u
CCOC(=O)c1ccc(NC(=O)Nc2cc3c(cc2N2CCCCC2)n(CC)c(=O)n3CC)cc1	1.4%
O=C(NCc1ccc(F)cc1)C(=O)NCC(c1ccc2c(c1)OCO2)N1CCOCC1 (stereo unspecified)	-0.1%
CCOC(=O)c1cc(-c2ccc(OC)cc2)n(CCC(=O)NCCc2ccccc2)c1C	1.9%
CCOc1ccccc1NC(=O)Cn1c(=O)n(CCCC(=O)NCCc2ccc(C)cc2)c(=O)c2ccccc21	0.4%
Cc1nc(-n2nc(C)c(Cc3ccccc3Cl)c2C)sc1C(=O)Nc1ccccc1F	0.9%
CCOC(=O)c1c(C)n(S(=O)(=O)c2ccc(C)cc2C)c2ccc(NS(=O)(=O)c3ccc(C)cc3C)cc12	-0.6%
COc1ccc(-n2cc(C(=O)Nc3cc(F)ccc3F)c3ccccc3c2=O)cc1	-0.2%
COC(=O)c1cccc(NC(=O)C2CCN(S(=O)(=O)Cc3ccccc3)CC2)c1C	8.9%
COc1ccc(CN2CCN(c3ncnc4sc5c(c34)CC(C)CC5)CC2)cc1F (stereo unspecified)	4.2%
COc1ccc(C(=O)NCCn2cc(SC(C)c3ccccc3)c3ccccc32)cc1OC (stereo unspecified)	18%
COc1ccc(NC(=O)CN2C(=O)C(c3ccc(C(C)(C)C)cc3)=NC2(C)C)cc1Cl	1.5%
Cc1ccc(Cl)cc1N1CCN(S(=O)(=O)c2cc3[nH]c(=O)c(=O)[nH]c3cc2C)CC1	17%
CC(CCc1ccccc1)NC(=O)Cn1c(=O)nc(-c2ccccc2)c2ccccc21 (stereo unspecified)	-0.8%
COc1ccc(CCn2cc3c(c2-c2ccc(Br)cc2)c(=O)n(C)c(=O)n3C)cc1OC	1.4%
COc1ccc(N2CCN(Cc3nc4c(c(=O)[nH]c(=O)n4C)n3CC(C)C)CC2)cc1	0.8%
CC(C)Cn1c(=O)c2sccc2n2c(CCCC(=O)NCCc3ccccc3)nnc12	0.6%
N#Cc1ccccc1OCC(=O)N1CCN(c2ccccc2F)CC1	0.6%
CCC(C)NC(=O)c1cc(Sc2cccc(Cl)c2)nc2ccccc12 (stereo unspecified)	1.5%

By substructure, those above with a CF3 group
SMILES	PINK1 modulator
CCC1CCCCN1C(=O)Cn1c(=O)n(-c2ccccc2C(F)(F)F)c(=O)c2c(C)c(C(=O)N(C)C)sc21 (stereo unspecified)	-0.6%
O=S(=O)(Nc1ccc(-c2ccc(N3CCCC3)nn2)cc1)c1ccc(C(F)(F)F)cc1	1.0%
O=C(CSc1nc2c([nH]c3ccccc32)c(=O)n1-c1ccccc1F)Nc1cccc(C(F)(F)F)c1	-0.8%
Cc1ccc(NC(=O)c2cc3nc(-c4ccc5c(c4)OCO5)cc(C(F)(F)F)n3n2)cc1Cl	4.0%
Cc1cc(C)c2c(=O)cc(C(=O)Nc3ccccc3C(F)(F)F)oc2c1	2.8%
